VCAM-1 rise: boosters of cytokine-driven VCAM-1 levels – cell-based, plate reader, pooled HUVEC, TNFa stimulus (AID 455). HUVEC TNFa-induced VCAM-1 immunofluorescence, plate reader; numbers were filed only for top-ranked candidate wells. augmentation, % at 5 µM. 10,000 tested, 0.2% active;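 active = a compound raising TNF-alpha-driven VCAM-1 surface staining, with its hit status upheld on visual or statistical review; inactive = the rest, including hits rejected on review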;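 note: 0% = TNFa with vehicle and 100% = strongest image-checked hit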
26S disassembly: blocks ATP-dependent breakdown of the yeast 26S proteasome. inhibition of disassembly, % (concentration not given with the values). 24,000 tested, 0.2% active. AID 751. anti-FLAG beads, GFP-proteasome disassembly, flow cytometry;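 active = above 40%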;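 note: plate controls were ATP control with full disassembly for no effect and ATP-gamma-S intact proteasomes for full effect; higher percent means more bead fluorescence retained so stronger block of disassembly; stock transfer was 100 nL into about 10 µL; wells with too few beads may also be inconclusive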
* hit, by the source's call; i = inactive; . = not tested or not shown. The list is partial; rates above refer to the full screens.

SMILES	VCAM-1 rise	26S disassembly
O=C1c2ccccc2C(O)N1c1ccc(Cl)cc1 (stereo unspecified)	.	0.2
N#CC1=C(N)N(c2ccc(Br)cc2)C2=C(C(=O)CCC2)C1c1cccnc1 (stereo unspecified)	.	0.1
O=C(NCCc1cn2ccccc2n1)c1ccccc1F	.	-2.3
CC1CCCCC1NC(=O)CN(C)S(=O)(=O)c1cccc2nsnc12 (stereo unspecified)	.	1.0
CCCCN(CCCC)CCn1cnc2c([nH]c3ccc(OC)cc32)c1=O	i	-0.3
O=C(NCCN1CCCCCC1)c1ccc(N2CCCC2=O)cc1	i	2.2
CCc1ccc(NC(=O)c2noc3c2CCCCC3)cc1	.	0.8
NC(=O)N1c2ccccc2C=Cc2ccccc21	i	0.3
CCOc1ccc(S(=O)(=O)Nc2ccccc2C(=O)Nc2ccccc2N2CCOCC2)cc1	i	0.6
CN(c1nnc(N)s1)C1CCCCC1	.	-1.2
Cn1c(=O)c(C(=S)NC(=O)C2CC2)c(N)n(Cc2ccccc2)c1=O	i	-2.0
Cc1ccc(CNC(=O)CCCNS(=O)(=O)c2cccc3nonc23)cc1	.	-0.8
O=C(c1c[nH]c2ccc(S(=O)(=O)N3CCC4(CC3)OCCO4)cc2c1=O)N1CCOCC1	.	0.0
Cc1cc(C)cc(-n2nnc(C(=O)NCc3ccccc3Cl)c2N)c1	.	0.4
COc1ccc(OC)c(-c2cc(C(=O)NCCN3CCOCC3)no2)c1	.	0.7
Cc1ccccc1NC(=O)CC1SC(=NC2CCCCC2)NC1=O (stereo unspecified)	.	0.1
CC(=O)Nc1ccc(S(=O)(=O)NC(CC(=O)NC2CCCCC2C)C(C)C)cc1 (stereo unspecified)	.	-0.7
CC(C)CCNC(=O)C(c1cccs1)N(CC1CCCO1)C(=O)Cn1nnc2ccccc21 (stereo unspecified)	i	-1.3
COc1cc(NC(=O)NC(C)(C(F)(F)F)C(F)(F)F)cc(OC)c1OC	i	1.2
COc1ccc(C(=O)N2CCN(c3ccc(C)cc3C)CC2)cc1OC	.	1.0

Four entries drawn at random from the list so far, as already listed:
SMILES	VCAM-1 rise	26S disassembly
Cc1ccc(CNC(=O)CCCNS(=O)(=O)c2cccc3nonc23)cc1	.	-0.8
NC(=O)N1c2ccccc2C=Cc2ccccc21	i	0.3
CCOc1ccc(S(=O)(=O)Nc2ccccc2C(=O)Nc2ccccc2N2CCOCC2)cc1	i	0.6
CC1CCCCC1NC(=O)CN(C)S(=O)(=O)c1cccc2nsnc12 (stereo unspecified)	.	1.0

The list continues.
SMILES	VCAM-1 rise	26S disassembly
CC(=O)Nc1nonc1-n1nnc(C(=O)NCc2ccccc2)c1C	.	-0.3
Cc1ncoc1C(=O)Nc1cccc(Cl)c1C	i	-0.6
O=C(NC1CCCCCC1)C1CCN(S(=O)(=O)N2CCC3(CC2)OCCO3)CC1	.	-0.7
CCOC(=O)Cn1c(=O)oc2cc(S(=O)(=O)Nc3cccc(C)c3)ccc21	.	0.6
O=C1NCCCc2c1no[n+]2[O-]	i	0.6
CCCC1(C(=O)OC)NC(c2cc(OC)c(OC)c(OC)c2)C2C(=O)N(CC)C(=O)C21 (stereo unspecified)	i	0.6
O=C1CC(c2ccccc2)C(C(=O)O)N1 (stereo unspecified)	.	-1.3
CCCCOc1ccc(C(=O)CCN2CCCCC2)cc1	i	-0.1
C=CCN1C(=O)/C(=C2/Sc3ccccc3N2C)SC1=Nc1c(C)n[nH]c1C	i	1.4
CC(C)c1[nH]nc2c1C(c1cccc(OC(=O)N3CCOCC3)c1)C(C#N)=C(N)O2 (stereo unspecified)	.	-0.1
CCOC(=O)c1oc2ccccc2c1NC(=O)COC	i	-0.2
COC(=O)Cn1c(=NC(=O)CSCC(=O)NC2CCCCC2)sc2cc(OC)ccc21	.	-1.0
Cc1ccc(-n2nc3c(c2NC(=O)c2ccc4c(c2)OCO4)CS(=O)C3)cc1 (stereo unspecified)	.	-0.9
O=C(CSc1nnc(C2COc3ccccc3O2)o1)N1CCCCC1 (stereo unspecified)	.	1.7
CCOc1ccc(CCNC(=O)C2CCN(C(=O)N(C)C)CC2)cc1OCC	.	-0.6
CC(=O)c1c(C)[nH]c(C(=O)N2CCCCCC2)c1C	.	-0.1
CC(C)CCNC(=O)c1cnn2c(C(F)(F)F)cc(-c3ccco3)nc12	.	-0.5
CC1CC(C)CN(C(=O)CSc2nnc(-c3ccc(F)cc3)o2)C1 (stereo unspecified)	.	-2.3
CCOC(=O)c1oc2ccc(S(=O)(=O)N3CCOCC3)cc2c1C	.	0.8
O=C(NCc1ccc2c(c1)OCO2)C1CC(=O)N(C2CCCCCC2)C1 (stereo unspecified)	.	-1.1

Laid out differently: entries from further up.
Values run as follows: VCAM-1 rise	26S disassembly
CC(=O)Nc1nonc1-n1nnc(C(=O)NCc2ccccc2)c1C
→ .	-0.3
Cc1ncoc1C(=O)Nc1cccc(Cl)c1C
→ i	-0.6
O=C(NC1CCCCCC1)C1CCN(S(=O)(=O)N2CCC3(CC2)OCCO3)CC1
→ .	-0.7
CCOC(=O)Cn1c(=O)oc2cc(S(=O)(=O)Nc3cccc(C)c3)ccc21
→ .	0.6
O=C1NCCCc2c1no[n+]2[O-]
→ i	0.6

Remaining list, next part.
SMILES	VCAM-1 rise	26S disassembly
COc1cc(C(=O)NCc2cn3ccccc3n2)cc(OC)c1OC	.	-1.5
CCOc1ccc(C(=O)Cc2ccc3oc(C(=O)O)cc3c2)c(O)c1	i	-2.8
Cc1noc(NS(=O)(=O)c2ccc(NC(=O)CSc3ncccn3)cc2)c1C	.	-0.4
O=C(NCCN1CCN(C(=O)c2cc3ccccc3oc2=O)CC1)c1cc2ccccc2oc1=O	.	-1.2
Cc1ccc(CNC(=O)c2cc3c(-c4ccc(Cl)cc4)nn(C)c3s2)o1	.	1.1
Cc1nn(C)c(C)c1S(=O)(=O)N(CC(=O)NCCCOC(C)C)c1ccc(C(C)C)cc1	.	-0.7
Cn1c(=O)[nH]c(=O)c2c1nc(N1CCCCC1)n2CCSc1ncccn1	i	1.1
CC(=O)c1ccc(NC(=O)CN2C(=O)COc3ccc(Cl)cc32)cc1	.	0.8
COC(=O)c1ccc(CSc2nc3c(c(=O)n2-c2ccc(Br)cc2)SCC3)o1	.	-0.7
COc1ccccc1-n1cnc(N)c1C(C)=O	i	-4.6
O=C(c1cccc(Cl)c1)N1CCN(Cc2ccncc2)CC1	i	-0.5
COc1ccc(CNS(=O)(=O)c2ccc3oc(C(=O)O)c(C)c3c2)cc1	i	-1.9
Nc1nc(Nc2ccccc2Br)nc(C(F)(F)F)n1	.	1.1
CCCCOC(=O)CSC1=C(C#N)C(c2ccccc2OCC)C(C#N)C(=O)N1 (stereo unspecified)	.	-0.7
Cn1cnc2c1c(=O)[nH]c(=O)n2C	i	-0.1
COC(=O)c1c(NC(=O)CSc2nnnn2C)sc(C)c1C	i	3.6
COCCNC(=O)CN1C(=O)CSc2cc(S(=O)(=O)N3CCCCCC3)ccc21	.	0.2
CCN(CCCNC(=O)CCn1c(=O)[nH]c2ccccc2c1=O)c1cccc(C)c1	.	-1.3
O=C(NCCN1CCCC1)c1ccc(Cn2c(=S)[nH]c3cc4c(cc3c2=O)OCO4)cc1	.	3.3
CCOCC(=O)Nc1nc2ccc(OC)cc2s1	i	-3.5

Structural class, the compounds so far containing a COOH group (three)
SMILES	VCAM-1 rise	26S disassembly
O=C1CC(c2ccccc2)C(C(=O)O)N1 (stereo unspecified)	.	-1.3
CCOc1ccc(C(=O)Cc2ccc3oc(C(=O)O)cc3c2)c(O)c1	i	-2.8
COc1ccc(CNS(=O)(=O)c2ccc3oc(C(=O)O)c(C)c3c2)cc1	i	-1.9

(listing goes on)
SMILES	VCAM-1 rise	26S disassembly
Cc1oc(-c2cccc(Cl)c2)nc1CN1CCC(C(=O)NCC2CCCO2)CC1 (stereo unspecified)	.	0.9
CC1(C)Cc2c(sc3ncnc(N)c23)CO1	i	1.6
O=C(CC1Oc2ccccc2NC1=O)NCc1ccccc1 (stereo unspecified)	.	-1.8
Cc1cc2cc(CNC(=O)CCC(=O)O)ccc2[nH]1	.	-0.1
O=C(NCCCN1CCN(c2cccc(Cl)c2)CC1)c1ccc(N2CCCC2=O)cc1	i	-2.2
CCOC(=O)c1cnc2cc3c(cn2c1=O)CCCC3	.	-1.4
CC1CC(C)CN(Cc2nc3c(c(=O)n(C)c(=O)n3C)n2Cc2ccccc2Cl)C1 (stereo unspecified)	i	0.2
CCn1c(=O)cc(SCC(=O)NCCCN2CCN(c3ccccc3F)CC2)c2ccccc21	.	-3.0
CCOc1ccc(-n2c(C)nc3cc(C(=O)NCCCN4CCOCC4)ccc32)cc1	.	-0.2
Cc1nc(C)c(C(=O)NCc2ccc(Cl)cc2)o1	.	4.8
COCC(=O)Nc1c(C(=O)Nc2cccc(OC)c2)oc2ccccc12	.	-0.4
CN(C)Cc1cn(CCC(=O)O)c2ccccc12	i	0.0
O=S(=O)(NC1CCCC1)c1ccc(S(=O)(=O)N2CCc3ccccc32)cc1	i	-1.9
CC(=O)Nc1ccc(Oc2cc(C#N)c(C#N)cc2N2CCCCCC2)cc1	i	-0.7
CCN(c1ccc(OC)cc1)S(=O)(=O)c1ccc2c(c1)CCN2C(=O)CCC(=O)O	i	3.3
Cc1ccc(-c2ccc(=O)n(CC(=O)NCCCN3CCCCC3C)n2)cc1 (stereo unspecified)	i	3.7
COc1ccc(N2CCN(CCNC(=O)CCS(=O)(=O)c3cccc4nsnc34)CC2)cc1	i	-1.3
CCOC(=O)CSc1nc2cc(C(=O)NCC3CCCO3)ccc2c(=O)n1Cc1ccco1 (stereo unspecified)	.	0.0
CCCCC(=O)N(c1ccc(C)c(C)c1)C1C=CS(=O)(=O)C1 (stereo unspecified)	.	-0.8
CC(=O)N(CC1CCCO1)C1(C(=O)NC2CCCC2)CCCCC1 (stereo unspecified)	.	1.2
COc1ccccc1OCc1ccc(C(=O)Nc2ccncc2)o1	i	1.7
CCOC(=O)CSc1nnc(CNC(=O)c2cc(OC)c(OC)c(OC)c2)n1C	.	-1.5
CCn1c(SCC(=O)Nc2cc(NC(C)=O)ccc2OC)nnc1-c1ccccn1	i	-1.0
O=C(CN1CCOCC1)Nc1c2c(nc3c1CCC3)CCC2	.	-1.1
O=C(NCC(c1cccnc1)N1CCN(c2ccc(F)cc2)CC1)c1ccc(F)cc1 (stereo unspecified)	i	4.1
COC(=O)c1cc(-c2c(C)oc3cc(O)ccc3c2=O)c(C)o1	i	-0.8
C=CCc1ccccc1OCC(O)CN(C(C)C)C(C)C (stereo unspecified)	.	1.5
CS(=O)(=O)N1CCN(CC2CC3C=CC2C3)CC1 (stereo unspecified)	i	1.5
O=c1/c(=C/c2ccco2)sc2nc(-c3ccccc3Br)nn12	i	0.6
CCn1cc(C(=O)N2CCN(C(=O)c3ccco3)CC2)c2cc(OC)c(OC)cc2c1=O	i	0.9
CCOC(=O)c1ccccc1NC(=O)Cn1cnc2c(cnn2-c2ccc(OC)cc2)c1=O	i	-3.5
CC(C)C12CN3CC(C(C)C)(CN(C1)C3c1ccc3c(c1)OCO3)C2=O (stereo unspecified)	i	-6.5
CC(=O)NC(CCS(C)(=O)=O)C(=O)Nc1cccc2ccccc12 (stereo unspecified)	i	1.3
CC(C)Nc1nc(NC(C)C)nc(Oc2ccc(/C=N/O)cc2)n1	.	2.6
Cc1ccc(S(=O)(=O)NCC(=O)N(CC(=O)NCc2ccccc2)CC2CCCO2)cc1 (stereo unspecified)	i	4.1
CCc1ccccc1N(CC)C(=O)c1cn(CC)c(=O)c2cc(OC)c(OC)cc12	.	-0.7
COc1ccc(C2C(C(=O)Nc3ccccc3)=C(C)Nc3nc(CCCO)nn32)cc1 (stereo unspecified)	.	-1.3
Cc1ccc(-c2nnc3c4ccccc4c(C)nn23)cc1NC(=O)c1ccco1	i	3.5
CCOc1ccc(CCNC(=O)C2CCCN(S(=O)(=O)c3c(C)n[nH]c3C)C2)cc1OCC (stereo unspecified)	.	-0.7
O=C(CCCc1cccs1)Nc1nc2c(s1)CCCC2	i	-0.5
O=C(O)C1CC=CCC1C(=O)Nc1cccc(C(=O)N2CCCCC2)c1 (stereo unspecified)	i	-0.2
O=C(Nc1nc2c(s1)CCCC2)C1COc2ccccc2O1 (stereo unspecified)	i	-0.5
O=C(c1cc(-c2ccc3c(c2)OCO3)on1)N1CCOCC1	.	0.8
COC(=O)CN1C(=O)C2(C(C#N)=C(N)Oc3n[nH]c(-c4cccs4)c32)c2ccccc21 (stereo unspecified)	.	0.1
O=C(c1ccc(CS(=O)(=O)c2ccc(Br)cc2)o1)N1CCN(c2ccccn2)CC1	.	0.2
COc1cc2c(cc1OC)C(C(=O)Nc1ccc3c(c1)OCCO3)C(c1cccnc1)N(C)C2=O (stereo unspecified)	.	0.0
COc1ccc(CC(=O)Nc2c3c(nn2-c2cccc(C)c2C)CS(=O)C3)cc1 (stereo unspecified)	.	3.8
Cc1cc(C)n(-c2ccc(C(=O)Oc3ccc4c(c3)OCO4)cc2)n1	i	-0.1
COCCOc1nc2ccccc2nc1C	i	-1.4
CC(Sc1nnnn1C)C(=O)Nc1ccc(Oc2ccccc2)cc1 (stereo unspecified)	i	-0.7
Cc1sc2ncnc(OCC(=O)N3CCN(S(=O)(=O)c4ccc(Cl)cc4)CC3)c2c1C	i	7.6
Cc1oc(-c2ccc(Cl)cc2)nc1CN1CCC(C(=O)N2CCN(c3ccccn3)CC2)CC1	.	3.0
CCOc1ccc(S(=O)(=O)Nc2cc(Sc3ncn[nH]3)c3oc(=O)sc3c2)cc1	.	4.4
CCOC(=O)N1CCN(C(=O)CSc2nnc(-c3cccs3)o2)CC1	.	-0.7
COc1ccc(-c2nc(CN3CCC(C(=O)NC(C)C)CC3)c(C)o2)cc1OC	.	1.4
COc1ccccc1-n1c(SC)nc(O)cc1=O	.	-1.1
